# T. gondii HeLa: T. gondii ME49Luc in HeLa cells, luciferase assay, 72 h, no IFN-y (AID 1259421). hit rate 9.6% among 6,400. T. gondii ME49Luc in HeLa, luciferase, 72 h, no IFN-y; active compounds read low; reference of the scale and settings of repeat entries not given here; many of its hits are not listed in these tables. activity change, negative = inhibition, %;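 active = activity change below -70%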;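 also: about 20 µM from a 10 mM stock diluted 500-fold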
# * hit, by the source's call; & = joins results of further samples; ! = repeats disagree. Only part of the results is shown, so the mix of outcomes need not match the whole.
molecule	T. gondii HeLa
COC1CCC(C(=O)c2ccc3nc4c(cc3c2)CCCO4)CC1 (stereo not drawn)	170&149
CO/N=C(\C(=O)N[C@@H]1C(=O)N2C(C(=O)OCOC(=O)C(C)(C)C)=C(C)CS[C@H]12)c1csc(N)n1	22
COc1ccccc1N1CCN(CCCCN2C(=O)c3ccccc3C2=O)CC1	-11&5
CC(C)[C@H](CO)Nc1nc(Nc2ccc(C(=O)O)c(Cl)c2)c2ncn(C(C)C)c2n1	2&13
CC(=O)Oc1cccc(O)c1	19
CCc1cc(C(C)=O)c(O)cc1OCCCCCC(C)(C)c1nn[nH]n1	31&51
CC(C)c1ccc2c(c1)CCC1[C@](C)(CN)CCC[C@]21C (stereo partly drawn)	3
Cc1ccccc1N=C(N)Nc1ccccc1C	5&5

# Next structures follow:
molecule	T. gondii HeLa
C=CC[C@@H]1/C=C(\C)C[C@H](C)C[C@H](OC)[C@H]2O[C@@](O)(C(=O)C(=O)N3CCCC[C@H]3C(=O)O[C@H](/C(C)=C/[C@@H]3CC[C@@H](O)[C@H](OC)C3)[C@H](C)[C@@H](O)CC1=O)[C@H](C)C[C@@H]2OC	-24&-1
Cc1ccccc1N1C(=O)c2cc(S(N)(=O)=O)c(Cl)cc2NC1C (stereo not drawn)	0&4
Nc1ccc(O)c(C(=O)O)c1	4
Cc1ccc(NC(=O)C(C)C)cc1C1CCN(Cc2ccc(Oc3ccc(F)c(F)c3)cc2)CC1	-60
COc1c(C)c2c(c(O)c1C/C=C(\C)CCC(=O)OCCN1CCOCC1)C(=O)OC2	-92*
C#CC1(OCC(O)CN2CCN(c3cccc(C(F)(F)F)c3)CC2)CCCCC1 (stereo not drawn)	-34
CC(C)[C@H](NC(=O)[C@H](CC(=O)O)NC(=O)[C@H](CCCCN)NC(=O)[C@@H](N)CCCN=C(N)N)C(=O)N[C@@H](Cc1ccc(O)cc1)C(=O)O	18
CCOc1cc(C(=O)Nc2ccc(Cl)c(-c3nc4ccccc4[nH]3)c2)cc(OCC)c1OCC	-70

# More structures
molecule	T. gondii HeLa
NC(=NC1C2CC3CC(C2)CC1C3)Nc1ccc(I)cc1 (stereo not drawn)	38
NCC(O)(CS(=O)(=O)O)c1ccc(Cl)cc1 (stereo not drawn)	8&15
CCc1cccc(N(C)C(N)=Nc2cccc3ccccc23)c1	6
CC[C@@H](C)Nc1cc(C(=O)NC2CC3CCC(C2)N3c2ccc(C(=O)C3CC3)cn2)c(C)cc1C(N)=O (stereo partly drawn)	-90*
CCC(C)[C@H]1O[C@]2(C=C[C@@H]1C)C[C@@H]1C[C@@H](C/C=C(\C)[C@@H](OC3C[C@H](OC)C(O[C@H]4C[C@H](OC)[C@@H](NC(C)=O)[C@H](C)O4)[C@H](C)O3)[C@@H](C)/C=C/C=C3\CO[C@@H]4[C@H](O)C(C)=C[C@@H](C(=O)O1)[C@]34O)O2 (stereo partly drawn)	-7
Cc1nc2c(OCc3ccccc3)cccn2c1CC#N	4&8
Brc1cccc(Nc2ncnc3cc4nc[nH]c4cc23)c1	4
C[C@]12C=CC(=O)N[C@@H]1CC[C@@H]1[C@@H]2CC[C@]2(C)[C@@H](C(=O)Nc3cc(C(F)(F)F)ccc3C(F)(F)F)CC[C@@H]12	-22

# Continued.
molecule	T. gondii HeLa
CC(=O)c1ccc(NS(C)(=O)=O)c(Oc2ccc(F)cc2F)c1	22
COc1ccc(C(=O)NCc2cccnc2)cc1C(=O)NCc1cccnc1	7
CC1=C2C(O)C(=O)OC3CC4C(C)(C)C(=O)C=C[C@]4(C)C(CC1)[C@]23C (stereo partly drawn)	10
CC(C)CCNc1ncccc1C(=O)N1CCN(Cc2ccccc2)CC1	8
N#CSc1cc(SC#N)c(N)nc1N	-18
O=C(Nc1cccc(Nc2ncc(Br)c(NCCc3cnc[nH]3)n2)c1)N1CCCC1	-5
CC#CCOC(=O)c1c(C)nc2sc3c(c2c1N)CCC(O)C3 (stereo not drawn)	67&50
CN(C/C=C/c1ccccc1)Cc1cccc2ccccc12	32

# (continued)
molecule	T. gondii HeLa
CC(C)c1cc2c(cc1S(=O)(=O)O)[C@@]1(C)CCC[C@@](C)(C(=O)O)[C@@H]1CC2	2
CC(=O)N[C@H]1[C@H]([C@H](O)[C@H](O)CO)O[C@](O)(C(=O)O)C[C@@H]1O	19
CC(Cc1ccc(O)c(O)c1)(NN)C(=O)O (stereo not drawn)	2
CN[C@@H](C)[C@H]1[C@H](O)C[C@@]2(C)[C@@H]3CC[C@H]4C(C)(C)[C@@H](NC)CC[C@@]45C[C@@]35CC[C@]12C	6
O=C(Nc1cc(C(F)(F)F)ccc1N1CCCCC1)c1ccncc1	-25
Nc1ccn(C[C@@H](CO)OCP(=O)(O)O)c(=O)n1	-60
O=C(Nc1ccncc1)c1cc([N+](=O)[O-])ccc1Cl	-87*
O=C1C(Cl)=C(N2CCOCC2)C(=O)N1c1ccc(Cl)c(Cl)c1	4

# Other results follow.
molecule	T. gondii HeLa
CC(=O)Nc1ccc(S(=O)(=O)Nc2ccc([N+](=O)[O-])cc2)cc1	10
NC(=O)N/N=C/c1ccc([N+](=O)[O-])o1	-50&-69
O=Nc1c(-c2c(O)[nH]c3ccccc23)[nH]c2ccccc12	-75*
Oc1cc(O)cc(O)c1	-30
O=C(NCCNCC(O)COc1ccc(O)cc1)N1CCOCC1 (stereo not drawn)	17
Cc1cccn2c(=O)c(-c3nn[nH]n3)cnc12	0
CC(C)N(CCCNC(=O)Nc1ccc(C(C)(C)C)cc1)C[C@H]1O[C@@H](n2ccc3c(N)ncnc32)[C@H](O)[C@@H]1O	10
CC(C)(Oc1ccc(Cl)cc1)C(=O)N1CSCC1C(=O)O (stereo not drawn)	19

# The results go on.
molecule	T. gondii HeLa
C[C@H](Oc1cc(-c2cnn(C3CCNCC3)c2)cnc1N)c1c(Cl)ccc(F)c1Cl	-85*!
CC(=O)OCC(=O)[C@@]1(O)CC[C@H]2[C@@H]3CCC4=CC(=O)C=C[C@]4(C)[C@@]3(Cl)[C@@H](Cl)C[C@@]21C	-9&10
OC[C@@H](O)[C@@H](O)[C@H](O)[C@@H](O)CO	6
CC(C)Cn1c(=O)n(C)c(=O)c2[nH]cnc21	8
CC(C)(C)c1cc(C(C)(C)C)c(NC(=O)c2c[nH]c3ccccc3c2=O)cc1O	-82*
O=S1(=O)N[C@H]2CCCN2c2ccccc21	1
O=C(O)c1ccc2c(c1)OCO2	16
CCN(C)C(=O)Oc1cccc([C@H](C)N(C)C)c1	13

# Other compounds
molecule	T. gondii HeLa
Cc1cc(Nc2ccc(NC(=O)c3ccc(Nc4ccnc5ccccc45)cc3)cc2)nc(N)n1	-90*
C1CNCCN1	7
CO[C@H]1C=CO[C@@]2(C)Oc3c(C)c(O)c4c(O)c(c(/C=N/N5CCN(C6CCCC6)CC5)c(O)c4c3C2=O)NC(=O)/C(C)=C\C=C[C@H](C)[C@H](O)[C@@H](C)[C@@H](O)[C@@H](C)[C@H](OC(C)=O)[C@@H]1C	-5
CCCCC/C=C\C=C\CCCCCCCCC(=O)O	12
CCN(CC)CC1CCN(c2ncc3ncnc(Nc4ccc(F)c(Cl)c4)c3n2)CC1	3&-13
COc1c(-c2coc3cc4c(cc3c2=O)CC(O)C(C)(C)O4)ccc2c1C=CC(C)(C)O2 (stereo not drawn)	-80*
COc1ccc(C(=O)Nc2c(Cl)cncc2Cl)cc1OC1CCCC1	4
O=C(NCCS(=O)(=O)c1ccc(C(F)(F)F)cn1)c1ccc(Cl)cc1	4

# The listing continues:
molecule	T. gondii HeLa
O/N=C/c1ccc(-c2ccc(O)c(F)c2)c(Cl)c1O	-85*
C=CCN1CCc2c(cc(O)c(O)c2Br)[C@@H](c2ccccc2)C1	-8
COC(=O)C1=C(C)NC(C)=C(C(=O)OCCCN2CCC(c3ccccc3)(c3ccccc3)CC2)[C@H]1c1cccc([N+](=O)[O-])c1	-80*!
O=c1[nH]c2ccccc2n1C1CCN(CCOc2ccccc2)CC1	-7
NC(=O)c1ccc[n+]([C@@H]2O[C@H](COP(=O)(O)OP(=O)(O)OC[C@H]3O[C@@H](n4cnc5c(N)ncnc54)[C@H](O)[C@@H]3O)[C@@H](O)[C@H]2O)c1	-2
CCOC(=O)CCNc1cc(N2CCc3ccccc3CC2)nc(-c2ccccn2)n1	-57
CC(=O)N1CCN(CCOc2ccc(C3CCN(C4=Nn5c(nnc5C(F)(F)F)CC4)CC3)cc2)CC1	8
COC(=O)C[C@H]1C(C)(C)[C@@H](OC(C)=O)[C@@H]2CC3=C4CC(=O)O[C@@H](c5ccoc5)[C@]4(C)CCC3[C@@]1(C)C2=O (stereo partly drawn)	13

# Exported as labelled records: part of the list above
COC(=O)C1=C(C)NC(C)=C(C(=O)OCCCN2CCC(c3ccccc3)(c3ccccc3)CC2)[C@H]1c1cccc([N+](=O)[O-])c1
- T. gondii HeLa: -80*!
O=c1[nH]c2ccccc2n1C1CCN(CCOc2ccccc2)CC1
- T. gondii HeLa: -7
NC(=O)c1ccc[n+]([C@@H]2O[C@H](COP(=O)(O)OP(=O)(O)OC[C@H]3O[C@@H](n4cnc5c(N)ncnc54)[C@H](O)[C@@H]3O)[C@@H](O)[C@H]2O)c1
- T. gondii HeLa: -2
CCOC(=O)CCNc1cc(N2CCc3ccccc3CC2)nc(-c2ccccn2)n1
- T. gondii HeLa: -57

# The main list resumes with the 2 entries that preceded the break.
molecule	T. gondii HeLa
CC(=O)N1CCN(CCOc2ccc(C3CCN(C4=Nn5c(nnc5C(F)(F)F)CC4)CC3)cc2)CC1	8
COC(=O)C[C@H]1C(C)(C)[C@@H](OC(C)=O)[C@@H]2CC3=C4CC(=O)O[C@@H](c5ccoc5)[C@]4(C)CCC3[C@@]1(C)C2=O (stereo partly drawn)	13
CC1CCN(CCCC(=O)c2ccc(F)cc2)CC1	-16&13
O[C@@H](COc1cccc2ncccc12)CN1CCN(C2c3ccccc3[C@@H]3[C@H](c4ccccc42)C3(F)F)CC1 (stereo partly drawn)	-64
COc1cc2c(cc1OC)C(c1ccc(N)cc1)=NNC(=O)C2	8&-19
Nc1nc(NCC2CCC(CNS(=O)(=O)c3cccc4ccccc34)CC2)nc2ccccc12 (stereo not drawn)	-77*!
Cc1cc(C#N)cc(C)c1Oc1nc(Nc2ccc(C#N)cc2)nc(N)c1Br	-90*
CN(C)CCN1C(=O)c2cccc3cc(NC(N)=O)cc(c23)C1=O	5
N#CC(C#N)Cc1ccc(O)cc1	1
NCCCS(=O)(=O)O	-1

# Continued:
molecule	T. gondii HeLa
NC(=O)c1cnc(N[C@@H]2CCCC[C@@H]2N)nc1Nc1cccc(-n2nccn2)c1	-83*!
O=C1C(=O)N(Cc2ccc(Cl)c(Cl)c2)c2ccccc21	12&25
[N-]=[N+]=N[C@]1(CO)O[C@@H](n2ccc(N)nc2=O)[C@H](O)[C@@H]1O	17
CC(C)=CCC[C@](C)(O)[C@H]1CC[C@]2(C)[C@@H]1[C@H](O)C[C@@H]1[C@@]3(C)CC[C@H](O)C(C)(C)[C@@H]3CC[C@]12C	28
CC(C)c1cc(-c2ccc(F)c3ccccc23)nc(N)n1	1
c1ccc2nc(C3=NCCN3)ccc2c1	-1&10
COc1cc(F)c(C(C)C)cc1-c1ccc(C(F)(F)F)cc1CN1C(=O)O[C@H](c2cc(C(F)(F)F)cc(C(F)(F)F)c2)[C@H]1C	13
COc1nccnc1NS(=O)(=O)c1ccc(N)cc1	4

# (listing goes on)
molecule	T. gondii HeLa
CC[C@H](NC(=O)[C@H](C)NC)C(=O)N1C[C@@H](O)C[C@H]1Cc1c(-c2[nH]c3cc(F)ccc3c2C[C@@H]2C[C@H](O)CN2C(=O)[C@H](CC)NC(=O)[C@H](C)NC)[nH]c2cc(F)ccc12	4
Brc1cc2c(cc1[C@H]1Nc3ccccc3[C@H]3C=CC[C@H]31)OCO2 (racemic)	12
CC(N)=NCc1cccc(CN)c1	3&-4
C[C@H](N)C(=O)N[C@@H](C)P(=O)(O)O	9
Cc1[nH]c(/C=C2\C(=O)Nc3ccc(S(=O)(=O)Cc4c(Cl)cccc4Cl)cc32)c(C)c1C(=O)N1CCC[C@@H]1CN1CCCC1	-84*!
NCCNS(=O)(=O)c1cccc2cnccc12	2
Cc1cc(-n2c(=O)[nH]c(=O)n(C)c2=O)ccc1Oc1ccc(SC(F)(F)F)cc1	-22&-18
COc1ccc(NC(=O)c2ccc(C(=N)N(C)C)cc2)c(C(=O)Nc2ccc(Cl)cn2)c1	0

# Other records follow.
molecule	T. gondii HeLa
O=c1[nH]nc2c3c(cccc13)NC(CN1Cc3ccccc3C1)=N2	12
CC1(COc2ccc3c(c2)ncn3-c2ccc3cccc(N4CCC(N)CC4)c3n2)COC1	-73*
COC(=O)C1=C(C)NC(C)=C(C(=O)OC/C=C/c2ccccc2)C1c1cccc([N+](=O)[O-])c1 (stereo not drawn)	-15
CN(C)Cc1cccc(N=C(c2ccccc2)c2c(O)[nH]c3cc(C(N)=O)ccc23)c1	-68&9
COP(=O)(OC)OC(c1ccc(Cl)cc1)P(=O)(OC)OC (stereo not drawn)	12&5
CCCCCC/C=C\CCCCCCCc1cccc(O)c1C(=O)O	6
CNC(=O)c1ccc(N2C(=S)N(c3ccc(C#N)c(C(F)(F)F)c3)C(=O)C2(C)C)cc1F	11
C/C(=N\NC(=S)N1CCC1)c1ccccn1	-85*

# Next entries follow.
molecule	T. gondii HeLa
CCCN1CCCC[C@H]1C(=O)Nc1c(C)cccc1C	10
CC1(C)CC23C(=O)CCC(O)C2(C)CCC13 (stereo not drawn)	12
CCC1(O)CC2CN(CCc3c([nH]c4ccccc34)C(C(=O)OC)(c3cc4c(cc3OC)N(C)C3C(O)(C(=O)OC)C(C(=O)OC)C5(CC)C=CCN6CCC43C65)C2)C1 (stereo not drawn)	-83*
c1ccc(-c2nn3c(c2-c2ccnc4cc(OCCN5CCOCC5)ccc24)CCC3)nc1	-32
C=CC(=O)Nc1ccc(Cl)cc1	17
O=c1c(O)c(-c2ccccc2)oc2cc(O)ccc12	31
OC[C@H]1O[C@@H](Oc2cc(O)cc(/C=C/c3ccc(O)cc3)c2)[C@H](O)[C@@H](O)[C@@H]1O	21
N[C@@H](CCC(=O)N[C@@H](CS[NH2+][O-])C(=O)NCC(=O)O)C(=O)O	16
Nc1nc(=O)n([C@H]2C[C@H](O)[C@@H](CO)O2)cc1F	-94*

# Screening results from PubChem BioAssay.
